# Compound activity: PubChem BioAssay, National Center for Advancing Translational Sciences (NCATS)
# StopGo FLuc = Primary qHTS Assay for Foot and Mouth Disease Virus Antivirals against NCGC Sytravon and CBC Compound Libraries: Firefly Luciferase Signal; HEK cells with a luciferase reporter of 2A StopGo recoding; Potency, µM (top dose mostly 57.5 µM), without a hit: top-dose signal change, negative = less light; 120,000 compounds, 0.23% hits; active = well fitted falling curve with a large enough effect; inconclusive = small, poorly fitted or top-dose-only effect; inactive = no such curve, though single readings can be large or run the other way; note: nearly all actives have a fitted effect of over 60% in size; overnight with compound
# 2A Renilla = Primary qHTS Assay for Foot and Mouth Disease Virus Antivirals against NCGC Sytravon and CBC Compound Libraries: Renilla Luciferase Signal; HEK cells with a luciferase reporter of 2A StopGo recoding; Potency, µM (series often up to 57.5 µM), without a hit: at the top dose signal change, negative = less light; 120,000 compounds, 0.32% hits; AID 1745857, 2022; active means well fitted falling curve with a large enough effect; inconclusive means small, poorly fitted or top-dose-only effect; inactive means no such curve, though single readings can be large or run the other way; note: nearly all actives have a fitted effect of over 55% in size; overnight with compound
# The depositor's hits bear a star; ? = inconclusive; & = joins results of further samples; [ ] = dose if it differs, or a comment. % is set by controls: 0 for no effect and ±100 for the full control effect; potency is the fitted concentration of half-maximal effect.
# The first 2 entries, ahead of the listing:
SMILES,StopGo FLuc,2A Renilla
CCn1c(SCC(=O)Nc2ccc(Cl)cc2)nc2nc3c(cc2c1=O)COC(C)(C)C3,-2%,-10%
COc1ccc(-c2c(C(F)(F)F)oc3cc(O)ccc3c2=O)cc1,-1%,-14%

# Results, previewed entries included:
SMILES,StopGo FLuc,2A Renilla
CCn1c(SCC(=O)Nc2ccc(Cl)cc2)nc2nc3c(cc2c1=O)COC(C)(C)C3,-2%,-10%
COc1ccc(-c2c(C(F)(F)F)oc3cc(O)ccc3c2=O)cc1,-1%,-14%
Cc1ccc(C2=NN(S(C)(=O)=O)C(c3ccc4nccnc4c3)C2)cc1 (stereo not given),175%[activator],72%[activator]
Cc1cc(=S)[nH]c2c(C)cccc12,6%,0%
CCn1cc(C(=O)n2nc(C)cc2C)c(S(=O)(=O)N2CCN(c3cccc(Cl)c3)CC2)n1,-14%,-4%
Cc1c(C(=O)N(C)c2ccccc2)nnn1-c1ccccc1F,130%[activator],11%
O=C(CC1N=C2c3ccccc3N=C(SCc3ccccc3F)N2C1=O)NCCc1ccccc1 (stereo not given),161%[activator],173%[activator]
O=C(NCCc1ccc(Cl)cc1)c1[nH]c2ccccc2c1Cl,66%[activator],3%
CSc1ccc(NC(=O)c2sccc2C)cc1,0%,3%
Cc1nc(SCc2ccccc2)[nH]c(=O)c1CCC(=O)N1CCOCC1,0%,19%
O=C(Nc1ccc(I)cc1C(F)(F)F)c1ccc(Cl)cc1,54%[activator],26%
CCc1ccc(OCC(=O)N(Cc2ccco2)Cc2ccco2)cc1,-9%,14%
Cc1nn(-c2nncc(-c3ccccc3)n2)c2c1C(c1cccc(O)c1)CC(=O)N2 (stereo not given),0%,-2%
CCOc1ccc2nc(SCc3cccc(-c4ccccc4)c3C)sc2c1,1%,2%
CN1CCCCC1=NCCn1cnc2c1c(=O)n(C)c(=O)n2C,5%,3%
CCOC(=O)c1cc(S(=O)(=O)NCc2ccc(F)cc2)[nH]n1,-9%,108%[activator]
Cc1cc(C)cc(C(=O)Nc2cccc(-c3nn4cnnc4s3)c2)c1,1%,4%
Cc1ccc(S(=O)(=O)N2CCN(C(=O)c3ccc(Cn4nnc5ccccc54)cc3)CC2)cc1,?,?
Cc1nn(C)c2c1c(-c1ccccc1)cc(=O)n2CC(=O)NC(C)(C)C,-6%,-12%
COc1ccc(NC(=O)c2sc3nc[nH]c(=O)c3c2C)cc1,90%[activator],-8%

# Next part:
SMILES,StopGo FLuc,2A Renilla
Cn1c(=O)[nH]c(=O)c2c1nc(N1CCNCC1)n2CC(N)=O,9%,-9%
O=C(Cn1c(=O)[nH]c(=O)c2ccccc21)Nc1cccc2cccnc12,27%,4%
COc1ccc(C(=O)Nc2ccc(N3CCCCC3)cc2)cc1S(=O)(=O)NC1CC1,21%,-14%
CCOc1ccc2c(c1)cc(C(=O)N1CCCCC1)n2C,0%,28%
CCOC(=O)c1nc(NCc2ccc(CC)cc2)c2ccccc2n1,3%,12%
CSc1ccc(CN2CCN(C(=O)COc3ccc(C)cc3)CC2)cc1,-35%,?
Cc1ccc(-c2noc(CN(C3CCCCC3)S(=O)(=O)c3ccc(C)cc3)n2)cc1,-4%,141%[activator]
Cc1ccc(-n2nc3c(=O)n(CCCC(=O)NCc4ccccc4F)nc(C)c3c2C)cc1,9%,17%
COc1ccc(CNC(=O)c2ccc(Sc3ccc(Cl)cc3)c(NC(C)=O)c2)c(OC)c1,-10%,26%
COc1ccccc1/C=C/C(=O)Oc1ccc(Cl)c(Cl)c1,0%,8%
COc1ccc(-n2c(C)nnc2SCc2nc(-c3ccc(OC)c(OC)c3)no2)cc1,-6%,-14%
CCc1ccc(NC(=O)C2CCCN2S(=O)(=O)c2cccc3nsnc23)cc1 (stereo not given),-20%,8%
c1csc(-c2cc3ccccn3c2)c1,32%[activator],20%
C/C(=N/Nc1ccc([N+](=O)[O-])cc1)c1ccccn1,54%,-3%
CN=C(NC)NCc1ccc(C(=O)OC)cc1,-9%,5%
COc1ccc(-n2nc(C(=O)NCCc3ccc(Cl)cc3)c3c4ccccc4n(C)c3c2=O)cc1,-20%,-14%
Cc1ccc2nc(-c3ccc(NC(=O)c4ccccc4S(C)(=O)=O)cc3)sc2c1,217%[activator],6%
Cc1cccc(N2CCN(C(=O)Cn3ncc4c3-c3cc(C)ccc3OC4)CC2C)c1 (stereo not given),?,4%
Cn1nccc1C(=O)NCc1ccc2c(c1)CCN2C(=O)c1ccc(Cl)cc1,-20%,-9%
Cc1cccc(C(=O)OCc2cc(=O)n3nc(C4CCCCC4)sc3n2)c1,-11%,-8%

# Following part:
SMILES,StopGo FLuc,2A Renilla
Cc1nn(CCc2nc(-c3ccccc3F)cs2)c2[nH]c(=O)cc(C(F)(F)F)c12,2%,-3%
Cc1cccc(-c2noc(C3CC(=O)N(c4ccc5c(c4)OCCO5)C3)n2)c1 (stereo not given),1%,17%
Cc1ccc2c(c1)C(Cc1nc3ccccc3c(=O)n1CCCO)C(=O)N2C(C)C (stereo not given),-19%,2%
COCCNC(=O)NC(=O)Cn1nc(C(=O)O)c2ccccc2c1=O,-1%,-6%
O=C(Nc1cc(F)cc(F)c1)C1CC2CCCC(C1)C2=O (stereo not given),0%,-8%
O=C(CSc1ncnc2nc[nH]c12)Nc1ccc(F)cc1F,14%,15%
O=C(CN1CCCC(c2nc3ccccc3o2)C1)NC(=O)NC1CC1 (stereo not given),4%,-4%
CCOc1ccc(-n2c(SCC(=O)N3CCCC3)nc3c([nH]c4ccccc43)c2=O)cc1,-6%,-3%
CCOc1ccc(CC(=O)Nc2ccc3c(c2)N(C)C(=O)c2ccccc2S3)cc1OCC,6%,65%[activator]
COc1ccc(CCNC(=O)c2cc3cccc4c3n2CC(C)S4)c(OC)c1OC (stereo not given),-12%,-22%
COC(=O)c1cc(NCc2cc(Cl)c(OCC(N)=O)c(OC)c2)ccc1N1CCOCC1,10%,0%
CCCn1c(N2CCN(Cc3ccc(Br)cc3)CC2)nc2c1c(=O)[nH]c(=O)n2C,2%,-5%
Cc1ccc2c(c1)C(c1ccc(F)cc1)N(C(=O)c1ccc(S(=O)(=O)N3CCCCC3)cc1)CC(=O)N2 (stereo not given),32%[activator],-2%
O=C(COC(=O)Cn1cnc2ccccc21)Nc1ccccc1C(F)(F)F,-6%,-13%
Cc1ccc(O)c(NC(=O)c2ccc(Br)c(S(=O)(=O)N3CCCCC3)c2)c1,?,?
Cc1ccccc1NC(=O)C(=O)NCC(c1ccc2c(c1)OCO2)N1CCN(C)CC1 (stereo not given),4%,-15%
CCc1cccc(NS(=O)(=O)c2c(C)nc3sc(CC)nn3c2=O)c1,6%,43%[activator]
CCOc1c(Cl)cc(/C=C2/NC(=O)NC2=O)cc1Cl,36%[activator],-7%
COc1ccc(C(=O)Nc2ccnn2Cc2cccs2)cc1S(=O)(=O)N1CCCCCC1,?,18%
O=C(Nc1ccc(F)cc1)OCc1cn(Cc2ccccc2C(F)(F)F)nn1,1%,21%

# Continued.
SMILES,StopGo FLuc,2A Renilla
CCOc1ccc(-c2nc(CSCC(=O)NCCc3ccc(OCC)c(OCC)c3)c(C)o2)cc1,?,8%
CSc1nc(C)c(CCC(=O)NC(C)c2ccc(F)c(F)c2)c(C)n1 (stereo not given),-4%,-8%
CCn1nc(-c2ccccc2)c(-c2ccccc2)c(C(=O)Nc2ccc(NC(C)=O)cc2)c1=O,-9%,37%[activator]
CC(C)(C)N(Cc1ccccc1)C(=O)COC(=O)c1cc2ccccc2oc1=O,238%[activator],19%
C[N+](C)(CC#Cc1ccccc1)CC(=O)c1ccccc1,-1%,-14%
Cn1c(=O)oc2cc(S(=O)(=O)N3CCCC(C(=O)NCCc4ccc(Cl)cc4)C3)ccc21 (stereo not given),-11%,3%
CCOC(=O)c1c(Oc2ccc(OC)cc2)nnc(-c2ccccc2)c1-c1ccccc1,-13%,-1%
CCCCN(C)S(=O)(=O)c1ccc(C(=O)Nc2ccc(-c3nc4ccc(C)cc4s3)cc2)cc1,85%[activator],-3%
CCc1noc(C)c1C(=O)Nc1sc2c(c1C(N)=O)CCC2,0%,10%
COc1cccc(-c2cc(C(=O)Nc3ccc(OC)cc3OC)no2)c1,-15%,-11%
O=C(NCCc1ccccc1)OCc1cn(Cc2ccc(F)cc2F)nn1,12%,11%
COC(=O)[C@]12C[C@H](CC(=O)N3CCCCC3)C(=O)N(CCc3ccc(OC)c(OC)c3)C1=C[C@H](COCc1ccccc1)O[C@@H]2C,1%,21%
CC(C)NC(=O)NC(=O)COC(=O)C1COc2ccccc2O1 (stereo not given),-3%,-8%
CN1C(=O)[C@@H](NC(=O)c2cc3ccccc3[nH]2)N=C(c2ccccc2)c2ccccc21,75%[activator],89%[activator]
O=C(Nc1ccc(-c2cc(C(F)(F)F)nn2-c2ccccc2)cc1)c1cccc(F)c1,?,?
Cc1ccc(N2NC3(CCCCC3)NC2=S)cc1,0%,48%[activator]
CC(C)(/C=N/N(Cc1ccccc1)c1ccccc1)CO,9%,16%
CCN(CC)C(=O)Cc1n[nH]c(=O)c2ccccc12,-1%,-16%
Cc1ccc(Cn2c(CN(C)Cc3ccccc3)nc3c2c(=O)n(C)c(=O)n3C)cc1,-2%,-3%
O=C(COc1ccc(Cl)cc1)Nc1ccc2nc(SCC(=O)N3CCCC3)sc2c1,14%,-1%

# (further entries)
SMILES,StopGo FLuc,2A Renilla
N#Cc1nc(-c2ccc(S(=O)(=O)N3CCCCCC3)cc2)oc1NCCN1CCOCC1,10%,187%[activator]
COc1ccc(OC)c(-c2noc(CSc3nnc(Cc4ccccc4)n3-c3cccc(C)c3)n2)c1,-19%,50%[activator]
CCN(Cc1cccs1)C(=O)c1cccs1,0%,22%
CCCCC/C(C=O)=C\c1ccccc1,-7%[11.5 µM],-3%
COCCn1c(-n2nc(C)cc2C)nc2c1c(=O)n(Cc1ccc(F)cc1)c(=O)n2C,5%,0%
CCC(C(=O)Nc1ccc(F)cc1F)n1nc(-c2ccccc2)c2c(c1=O)CCCC2 (stereo not given),1%,54%[activator]
COc1ccc2c(c1)c(=O)c(C(=O)c1ccc(Cl)cc1)cn2CC(=O)Nc1ccc2c(c1)OCCO2,-22%,-14%
Cc1ccc2c(CN3c4ccc(S(N)(=O)=O)cc4CC3C)cc(=O)oc2c1C (stereo not given),0%,18%
COc1ccc(Cl)cc1NC(=O)c1c(C(=O)Nc2cccc(C)c2C)sc2nc(C)cc(=O)n12,-16%,-7%
Cc1cccc(OC(=O)CSc2nnc(CNC(=O)c3ccccc3)o2)c1C,18%,14%
CCOC(=O)c1ccc(OC(=O)CCCCCN=C(N)N)cc1,-1%,-14%
O=S(=O)(NCCO)c1ccc2ccccc2c1,-1%,52%[activator]
CCOC(=O)c1ccc(NS(=O)(=O)c2ccc(Br)s2)cc1,-7%,0%
Cc1ccc2cccc(NC(=O)c3ccc(C#N)cc3F)c2n1,9%,-1%
O=[N+]([O-])c1ccc(C(c2ccccc2)c2cccc3ccccc23)cc1 (stereo not given),0%,0%
COc1ccc(Cc2c(C)nn(-c3nc(CC(=O)Nc4ccccc4)cs3)c2C)cc1,26%,40%[activator]
COc1cc(NC(=O)CSc2nc3c(=O)[nH]cnc3n2-c2ccc(C)cc2)cc(OC)c1,0%,0%
COc1ccccc1NC(=O)c1c(NC(=O)Cc2ccccc2)sc2c1CCC(C(C)(C)C)C2 (stereo not given),?,?
COc1cc(C(=O)OCc2cc(=O)n3nc(C4CCCCC4)sc3n2)cc(OC)c1OC,4%&-13%,-1%&-5%
COc1ccc2c(C)c(CCC(=O)Nc3cc(C)cc(C)c3)c(=O)oc2c1,-12%,-14%

# Taken from above:
# Value for CCOC(=O)c1ccc(NS(=O)(=O)c2ccc(Br)s2)cc1 under StopGo FLuc: -7%
# Value for CCCCC/C(C=O)=C\c1ccccc1 under StopGo FLuc: -7%[11.5 µM]

# Going on with the list.
SMILES,StopGo FLuc,2A Renilla
Cc1ccc(CN(C)C(=O)c2ccc3ncsc3c2)o1,14%,41%[activator]
COc1cc(CC(=O)NC2CCc3ccccc32)ccc1C (stereo not given),20%,57%[activator]
CC(C)NC(=O)CSc1ccc2c(c1)OCCO2,?,-7%[1.06 µM]
Cc1cccc(NC(CNS(=O)(=O)c2ccc(Cl)cc2)c2ccccc2)c1 (stereo not given),-8%,101%[activator]
O=C(Nc1cccc(-c2nc3cc(Cl)ccc3o2)c1)C(F)(F)F,143%[activator],3%
CCn1nc(C(=O)OCC(=O)c2ccc3c(c2)NC(=O)CO3)c2ccccc2c1=O,7%,6%
CCCCC(CC)CNc1ncnc2sccc12 (stereo not given),8.9µM*,-1%[1.06 µM]
Cc1ccc(C)c(NC(=O)c2ccc3c(=O)n(-c4ccccc4)c(=O)[nH]c3c2)c1,10%,-10%
CC(NC(=O)Cc1ccc(NC(=O)N2CCCCc3ccccc32)cc1)c1ccccc1 (stereo not given),-16%,8%
Cc1ccc(C)c(NC(=O)/C(C#N)=C/c2ccc(C(C)C)cc2)c1,-17%,-6%
CCn1c(=O)c(-c2noc(C(=O)NCc3ccc(C)o3)n2)nn(-c2ccccc2)c1=O,-1%,-8%

# Compound profiles (already shown). Order of screens: StopGo FLuc, 2A Renilla
# Cc1cccc(-c2noc(C3CC(=O)N(c4ccc5c(c4)OCCO5)C3)n2)c1 (stereo not given) as listed: 1%, 17%
# CCc1ccc(NC(=O)C2CCCN2S(=O)(=O)c2cccc3nsnc23)cc1 (stereo not given) as listed: -20%, 8%
